rRNA inh HTS: reduced GFP signal of wild-type E. coli, primary screen, bacterial rRNA inhibitor project, GFP/RFP fluorescence, OD600, single point; E. coli WT GFP vs humanized-ribosome RFP mutants, 24 h; stronger effect = lower value; DMSO median 0, no signal -100; GFP signal change (wild-type ribosome), % (test concentration not listed); 1.6% of 350,000 active; AID 720706, 2013;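 active = significant combined selectivity score with lowered wild-type GFP, culture density cut under 30%, mutant RFP and density less affected; inactive = any of these conditions unmet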; note: one replicate is shown; some compounds called inactive have numbers as strong as hits
HNF4A DNA FP: change in binding of human HNF4A to DNA, primary screen, biochemical, fluorescence polarization, FITC-DNA; Hepatocyte nuclear factor 4-alpha (Homo sapiens), P41235; 1 h; activity change, % at 10 µM; 0.3% of 360,000 active; in the data active = activity change above about 30%, passing the limit was not always enough;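 note: controls were the assay level and a saturating level of protein; the project sought stronger binding though the title names inhibitors; some compounds called inactive have numbers as strong as hits; positive values seem to mean higher polarization but the record does not say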
Target sequence (P41235 whole entry, looked up): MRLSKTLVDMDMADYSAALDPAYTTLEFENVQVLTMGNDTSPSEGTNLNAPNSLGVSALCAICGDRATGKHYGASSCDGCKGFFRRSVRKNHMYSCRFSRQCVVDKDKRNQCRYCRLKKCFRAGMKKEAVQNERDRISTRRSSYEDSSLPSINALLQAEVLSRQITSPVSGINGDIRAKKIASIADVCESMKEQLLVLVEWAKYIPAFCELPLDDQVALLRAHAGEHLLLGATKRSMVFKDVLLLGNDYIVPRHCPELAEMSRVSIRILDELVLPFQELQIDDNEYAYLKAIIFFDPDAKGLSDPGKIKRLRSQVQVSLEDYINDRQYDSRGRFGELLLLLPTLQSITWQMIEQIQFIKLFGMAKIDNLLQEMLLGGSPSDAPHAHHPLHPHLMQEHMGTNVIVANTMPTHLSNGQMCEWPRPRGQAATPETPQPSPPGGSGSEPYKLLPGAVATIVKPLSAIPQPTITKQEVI
FGF22 binding: binders of human FGF22 protein, primary screen, FGF22 synaptogenesis inhibitor project, biophysical, thermal shift, single point; Fibroblast growth factor 22 (Homo sapiens), Q9HCT0; calls only at 9.99 µM; recombinant FGF22 thermal shift, SYPRO orange fluorescence; percent of sucrose octasulfate shift, DMSO zero; AID 651658, 2012; 1.5% of 340,000 active;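 active = melting point raised past a set limit in the mean and every replicate; inconclusive = no clear call; three in four hits are not shown here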
Target sequence (Q9HCT0 whole entry, looked up): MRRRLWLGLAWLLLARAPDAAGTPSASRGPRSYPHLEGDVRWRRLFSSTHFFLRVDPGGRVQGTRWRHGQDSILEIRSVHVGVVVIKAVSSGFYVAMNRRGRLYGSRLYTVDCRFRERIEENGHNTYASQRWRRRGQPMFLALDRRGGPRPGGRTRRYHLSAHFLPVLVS
ALR H2O2 inh: inhibitors of human ALR sulfhydryl oxidase, primary screen, biochemical, H2O2 detection, HRP-luminol luminescence, single point | inhibition, % (test concentration not listed) | FAD-linked sulfhydryl oxidase ALR (Homo sapiens), P55789 | 3.8% of 290,000 active | purified ALR, DTT oxidation;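 active = mean and each replicate at 75% or more; inconclusive = only one of the two met; inactive = neither met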;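 note: stock transfer was 7.5 nL into about 7.5 µL; 0% = neutral wells and 100% = wells with inactivated enzyme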
Target sequence (P55789 whole entry, looked up): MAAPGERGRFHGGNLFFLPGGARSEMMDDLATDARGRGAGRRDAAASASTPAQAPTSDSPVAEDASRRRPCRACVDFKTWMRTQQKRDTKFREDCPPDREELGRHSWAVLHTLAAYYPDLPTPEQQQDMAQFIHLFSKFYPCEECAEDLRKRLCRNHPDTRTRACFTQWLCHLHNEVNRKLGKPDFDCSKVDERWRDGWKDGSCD
Vif A3G: inhibitors of Vif binding to APOBEC3G peptide, primary screen, biochemical, TR-FRET, GST-Vif 1-94, biotin-A3G peptide, dose response retest (AID 1117319). TR-FRET GST-Vif / biotin-A3G peptide binding; higher % means a stronger effect; test concentration not given here; strong numbers were not always called active. one-dose inhibition, %; IC50 in µM for titrated hits. 0.57% of 260,000 active;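 active = above the screen mean plus three standard deviations and confirmed in dose response; inconclusive = results disagree or hit not tested in dose response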;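 note: Vif residues 1-94 fused to GST binding biotinylated APOBEC3G peptide 110-148; 0% = full assay without inhibitor and 100% = GST in place of GST-Vif; retest series ran down from 100 µM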
E coli growth: E. coli growth inhibition, primary screen, OD600. 0.21% of 330,000 active. AID 1053175, 2014. Escherichia coli growth, 23 h; stronger effect = lower value. OD600 absorbance (no concentration beside the values);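 active = OD600 absorbance below the run mean of sample wells minus 3.6 SD, in any replicate, cut at about 0.56 in these data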;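 note: stock transfer was 300 nL into about 60 µL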
AF4-AF9 inh: inhibitors of AF4 peptide binding to AF9, primary screen, biochemical, AlphaScreen, biotin-AF4 peptide, FLAG-AF9, single point. Protein AF-9 (Homo sapiens), P42568. inhibition, % at 10 µM. 0.47% of 350,000 active;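 active = every replicate reaching a set inhibition limit, whatever the replicate mean, cut at about 25% in these data; inconclusive = mean inhibition reaches that limit but some replicates miss it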;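 note: 0% = plate neutral control median and 100% = total signal loss; the record names both 10 and 1 µM as test concentration; the first replicate is given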
rRNA inh HTS OD600: second read-out of rRNA inh HTS, no call of its own (marks repeat the call); OD600 change, %; measured here: OD600 growth;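 optical density of the mix in the first replicate; 0 = DMSO median and -100 = no signal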
rRNA inh HTS RFP: recorded beside rRNA inh HTS, whose call it bears; RFP signal change, %; measured here: RFP humanized mutant strains;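 first replicate; 0 = DMSO median and -100 = no signal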
Starred values were filed as active, the others as inactive; i = inactive; ? = inconclusive; / = not tested or not shown. Not all compounds are listed (hit frequency here may not be typical).

Molecule | rRNA inh HTS | rRNA inh HTS OD600 | rRNA inh HTS RFP | HNF4A DNA FP | FGF22 binding | ALR H2O2 inh | Vif A3G | E coli growth | AF4-AF9 inh
CC(=O)Nc1cc(-c2cccc(C(=O)NCCO)c2)cn2c(-c3cccc(C(F)(F)F)c3)cnc12 | -20 | -39 | 8.0 | -1.6 | i | / | / | / | 5.2
C[C@@H]1CN([C@H](C)CO)C(=O)c2cccc(NC(=O)NC3CCCCC3)c2O[C@H]1CN(C)C(=O)Nc1ccc(C(F)(F)F)cc1 | -6 | 1 | 1.3 | / | i | / | / | / | 0.0
O=C(NC(=S)NC1CCN(Cc2ccccc2)CC1)c1ccc(F)cc1 | 5 | 5 | -1.7 | 0.9 | i | / | 0% | 0.66 | 4.3
CCNC(=O)C[C@H]1CC[C@@H]2[C@H](COc3ccc(NS(C)(=O)=O)cc3C(=O)N2C)O1 | 3 | 0 | 2.1 | / | i | / | / | / | -2.7
CC(=O)c1ccc(NCC(=O)N2CCN(S(=O)(=O)c3ccccc3)CC2)cc1 | 3 | 3 | -1.5 | 0.7 | i | / | 0% | 0.7 | 1.0
O=C(CCS(=O)(=O)c1ccccc1)Nc1ccc(N2CCOCC2)cc1 | 3 | 3 | -9.0 | -1.2 | i | ? | / | 0.71 | 6.6
NS(=O)(=O)c1ccc(CCNC(=O)COC(=O)Cc2c(F)cccc2Cl)cc1 | 3 | 4 | -0.7 | -1.4 | i | -2 | / | 0.7 | -1.0
CC(C)(C)c1ccc(CC(=O)N2CCC2(C)C(=O)Nc2cccc3cccnc23)cc1 (configuration not stated) | / | / | / | -8.1 | i | / | / | / | 0.1
CC(C)NC(=O)COc1ccc(S(=O)(=O)N2CCCC2)cc1 | 1 | 4 | 0.3 | -1.9 | i | 0 | / | 0.65 | -5.0
COC(=O)c1sc(NC(=O)c2cccc([N+](=O)[O-])c2)c(C(N)=O)c1C | / | / | / | -2.0 | / | -4 | ? | 0.7 | /
O=C(NCc1ccc2c(c1)OCO2)C1CCCN(S(=O)(=O)c2cccs2)C1 (configuration not stated) | 7 | 6 | -0.4 | -1.5 | i | -11 | 0% | 0.71 | -5.3
Cc1nc(-c2ccc(Cl)cc2)sc1C1(C)CC(c2ccc(Br)cc2)=NO1 (configuration not stated) | / | / | / | -3.5 | / | -3 | / | 0.72 | /
COC(=O)c1cc(NC(=O)CC2CCCC2)cc(C(=O)OC)c1 | -8 | -8 | 1.5 | 1.7 | i | 3 | / | 0.65 | 1.5
Cc1ccc(S(=O)(=O)C(C)C(=O)NCCS(=O)(=O)c2ccc(Cl)cc2)cc1 (configuration not stated) | 1 | -5 | -1.7 | 3.7 | i | -12 | -8% | 0.68 | -1.8
C=CCOc1ccc(/C=C/C(=O)OCC(=O)NCCCc2ccccc2)cc1 | 2 | 9 | 1.5 | -3.3 | i | / | -4% | 0.68 | 7.3
COC(=O)/C(=C/c1ccco1)NC(=O)c1ccco1 | / | / | / | 5.9 | i | 8 | ? | 0.71 | 0.4
CCN(Cc1nc(-c2ccccc2)no1)C(=O)c1ccc2c(c1)OCO2 | -3 | -34 | -0.8 | -2.1 | i | / | -12% | 0.67 | 0.6
Cc1ccccc1-c1nc(CS(=O)(=O)CC(=O)N2CCc3ccccc3C2)c(C)o1 | -11 | -14 | 4.9 | 2.6 | i | / | 6% | 0.7 | 6.6
O=C(N/C(=C/c1cccnc1)C(=O)N1CCOCC1)c1ccccc1Br | 7 | 8 | -0.9 | -1.7 | i | -6 | / | 0.73 | -0.1
Cn1c(=O)c2sccc2n2c(CCCC(=O)NCc3cccnc3)nnc12 | 11 | 21 | 0.8 | 0.8 | i | 1 | -2% | 0.68 | -0.9
Cc1onc(-c2c(F)cccc2Cl)c1C(=O)NC1CCCCCC1 | 1 | -35 | -2.4 | 1.2 | i | 6 | / | 0.71 | 0.7
COc1ccc(-c2cc3ccccc3nc2N)cc1OC | -5 | -6 | -2.6 | 3.1 | i | 2 | -1% | 0.64 | -0.4
Cc1cccc(/C=N/NC(=O)c2cccc(Cl)c2)n1 | -1 | -14 | 1.6 | 0.2 | i | 4 | / | / | -2.5
CCOc1ccc(NC(=S)N2CCCN(Cc3cc(C)ccc3C)C2)cc1 | 5 | 0 | -3.5 | -1.1 | i | -2 | 19% | 0.67 | 7.0
COc1cccc(-c2nc(CN3CCN(C(=O)c4ccco4)CC3)c(C)o2)c1OC | 2 | 19 | 7.4 | -2.9 | i | / | -2% | / | -6.6
Cc1ccc(-n2c(C)cc(/C=C(\C#N)C(=O)NCC3CCCO3)c2C)cc1 (configuration not stated) | / | / | / | 0.3 | / | 1 | 1% | 0.66 | /
COC(=O)C1=C(C)N(CCCC(=O)O)C(=O)NC1c1ccc(-c2ccccc2)cc1 (configuration not stated) | 6 | 20 | -9.6 | 1.0 | i | 7 | 9% | 0.71 | 1.0
CCCCCc1ccc(-c2cn(CCc3c[nH]c4ccccc34)nn2)cc1 | 19 | 5 | -0.6 | -2.7 | i | -4 | / | 0.73 | 0.8
C[C@H]1CN([C@@H](C)CO)C(=O)c2cccc(NS(=O)(=O)c3cn(C)cn3)c2O[C@H]1CN(C)S(=O)(=O)c1ccc(F)cc1 | 1 | 2 | 0.4 | / | i | / | / | / | -14
COc1cc(SC)ccc1C(=O)Nc1nc2ccccc2[nH]1 | -3 | -6 | -2.0 | 1.8 | i | -8 | 12% | / | -2.1
C[C@H]1CN([C@@H](C)CO)C(=O)c2cc(NS(C)(=O)=O)ccc2O[C@H]1CN(C)C(=O)Nc1ccc2c(c1)OCO2 | 7 | 14 | 1.5 | / | i | / | / | / | -8.8
N#Cc1ccc(-c2ccc3c(c2)[C@H]2[C@H](CCN2C(=O)c2ccccc2F)[C@H](CO)N3)cc1 | -1 | -9 | 0.6 | / | i | / | / | / | 1.8
C[C@@H]1CCCCO[C@H](CN(C)C(=O)Nc2ccc(C(F)(F)F)cc2)[C@@H](C)CN([C@@H](C)CO)C(=O)c2cc(NC(=O)CCC(F)(F)F)ccc2O1 | 2 | -15 | -0.4 | / | i | / | / | / | -2.1
O=C(c1ccc(NS(=O)(=O)c2ccc3[nH]c(=O)[nH]c3c2)cc1)N1CCN(c2ccccc2)CC1 | 2 | 3 | 0.8 | -3.3 | i | 9 | / | 0.64 | 3.9
O=C(Nc1cccc2ccccc12)ON=C1CCCCC1 | -10 | -4 | 6.9 | -3.0 | i | / | / | 0.67 | -0.4
COc1ccc(Cc2c(O)nc(SCC(=O)N3CCCCCC3)[nH]c2=O)cc1 | / | / | / | 0.5 | / | 57 | -5% | 0.64 | /
Nc1cc(-c2ccc(Br)cc2)[nH]n1 | -6 | -8 | -4.0 | 1.2 | i | / | / | 0.64 | -5.0
COc1ccc(C2CCCN2C(=O)c2cccs2)cc1 (configuration not stated) | / | / | / | -1.0 | / | -3 | 22% | 0.7 | /
CCOC(=O)c1cccc(NC(=O)CSc2nnc(CNc3ccc(C)cc3)n2CC)c1 | / | / | / | 0.4 | / | -4 | 6% | 0.6 | /
CCCC#Cc1ccc2c(c1)O[C@@H](CN(C)C(=O)c1ccccc1F)[C@@H](C)CN([C@H](C)CO)S2(=O)=O | -8 | -18 | 3.0 | / | i | / | / | / | -1.1
COc1cccc(C(=O)N2CCN(Cc3cccc(F)c3)CC2)c1 | 10 | 11 | 4.8 | 4.4 | / | -28 | -1% | 0.65 | /
COc1ccc(N2CCN(CC(O)COc3ccc([N+](=O)[O-])cc3)CC2)cc1 (configuration not stated) | 1 | 5 | 0.4 | -2.9 | i | -2 | ? | 0.71 | -0.4
COCC(=O)N(C)C[C@H]1Oc2ncc(C#Cc3ccccc3)cc2C(=O)N([C@@H](C)CO)C[C@@H]1C | -3 | 0 | -1.7 | / | i | / | / | / | -0.8
CCCCCCNC(=O)O[C@H]1C[C@H](C(=O)OC)[C@H](C(=O)OC)C2CN(S(=O)(=O)c3ccc(C)cc3)C[C@@]21O (some centres not stated) | -6 | -4 | -0.9 | 2.2 | i | / | -5% | / | -2.3
O=C(O)c1ccc(/C=N/NC(=S)NCc2ccccc2)cc1 | -19 | -36 | -8.6 | 4.2 | i | / | -5% | / | -1.7
C=CCOC(=O)C(C#N)c1nc2ccccc2nc1N1CCCC1 (configuration not stated) | / | / | / | 2.3 | / | 62 | 28% | 0.8 | /
COc1ccc(-c2onc3ccc(Br)cc23)cc1 | / | / | / | -58 | / | -13 | 4% | 0.68 | /
C[C@H](CO)N1C[C@H](C)[C@@H](CN(C)CC2CC2)Oc2c(NC(=O)Nc3ccccc3)cccc2C1=O | 2 | -1 | 4.1 | / | i | / | / | / | -1.5
C[C@@H]1CN([C@@H](C)CO)C(=O)c2cccc(NC(=O)Nc3ccccc3)c2O[C@@H]1CN(C)S(=O)(=O)c1ccc(Cl)cc1 | -25* | -16* | 4.7* | / | i | / | / | / | 0.7
Cc1cccc(NC(=S)NC2CCN(Cc3ccccc3)CC2)c1C | 2 | -3 | -2.7 | -1.0 | i | 6 | / | 0.66 | 4.8
CSCC(=O)N1CCCC(CO)(Cc2ccccc2C)C1 (configuration not stated) | 9 | 0 | -1.4 | 0.3 | i | -2 | -4% | 0.65 | -1.5
O=C(c1ccccc1Br)N(Cc1ccccc1)c1ccccc1 | -51 | -67 | -3.2 | -4.4 | i | -2 | / | 0.71 | 0.4
COc1ccc(CN2CCNC(=O)C2CC(=O)N(C)Cc2ccno2)c(F)c1 (configuration not stated) | 11 | 6 | 0.5 | 1.4 | i | -14 | / | 0.6 | 0.8
COCCn1c(SCC(=O)NC2CC2)nnc1-c1ccco1 | 14 | 13 | 4.4 | 7.5 | i | 3 | / | 0.69 | -3.2
Cc1csc2c(N(C)CCO)ncnc12 | 2 | 4 | -1.7 | -0.8 | i | -1 | -5% | 0.65 | -4.5
O=C(Nc1ccc(-c2csc(Nc3ccccc3)n2)cc1)c1cccc(C(F)(F)F)c1 | -1 | -1 | 5.2 | 5.9 | i | -14 | / | 0.72 | 4.1
CCOC(=O)C(NC(=O)c1cccc(Cl)c1)(Nc1sc2c(c1C(N)=O)CCC2)C(F)(F)F (configuration not stated) | 0 | 0 | 13 | 7.6 | i | 1 | 31% | 0.69 | 2.4
Cc1cccc(C(=O)Nc2ccccc2-c2nnn(CC(=O)Nc3ccc4c(c3)OCCO4)n2)c1 | / | / | / | 0.9 | / | / | 0% | 0.72 | /
Nc1cc(=O)n(Cc2ccccc2)c(N)c1C(=O)NCc1ccccc1 | 4 | 5 | -0.2 | / | i | / | / | / | 7.8
CC(C)(C)OC(=O)NCCCCCNC(=O)c1[nH]cnc1C(=O)N[C@@H](Cc1ccccc1)C(=O)OCc1ccccc1 | 14 | 10 | 9.7 | -2.1 | i | / | 1% | / | -2.5
CN(CCc1ccccc1)C(=O)c1ccc(NC(=O)Cc2ccc(NC(=O)C3CCN(S(=O)(=O)c4cccc([N+](=O)[O-])c4)CC3)cc2)cc1 | 24 | 22 | 3.8 | 1.5 | i | / | 0% | 0.71 | 0.1

Single records, from the list above. Screens in order: rRNA inh HTS	rRNA inh HTS OD600	rRNA inh HTS RFP	HNF4A DNA FP	FGF22 binding	ALR H2O2 inh	Vif A3G	E coli growth	AF4-AF9 inh
Profile of `Cc1cccc(NC(=S)NC2CCN(Cc3ccccc3)CC2)c1C` = 2	-3	-2.7	-1.0	i	6	/	0.66	4.8
Profile of `COc1ccc(-c2onc3ccc(Br)cc23)cc1` = /	/	/	-58	/	-13	4%	0.68	/

Compound activity (PubChem)
